RE007 growth inh – less growth of the S. pombe RE007 Vpr strain | 360,000 tested, 0.21% active | Potency, µM (series often up to 92.2 µM), for the others: top-dose activity change, negative = less growth | S. pombe RE007 Vpr strain, BacTiter-Glo ATP luminescence, 24 h; control for the full effect not named in the record; active = well fitted falling curve with a large enough effect; inconclusive = small, poorly fitted or top-dose-only effect; inactive = no such curve, though single readings can be large or run the other way;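 further: nearly all actives have a fitted effect of over 50% in size; the assay follows cell death caused by Vpr and the record does not say whether a fall means rescue or toxicity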
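Fission yeast strain RE007, carrying one chromosomally integrated HIV-1 vpr copy, was seeded at OD 0.01 in PMG+AL medium with 23 nL pinned compound. After 24 h at 30 °C and 99% humidity, viability was read by BacTiter-Glo luminescence.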
2A StopGo – lowers the luciferase signal of an FMDV 2A StopGo reporter. human cells with a luciferase reporter of 2A StopGo recoding; control for the full effect not named in the record. Potency, µM (series often up to 57.9 µM), inactives show at the top dose signal change, negative = less light. 410,000 tested, 1.2% active; active = well fitted falling curve with a large enough effect; inconclusive = small, poorly fitted or top-dose-only effect; inactive = no such curve, though single readings can be large or run the other way; tested in HEK293T cells; further: nearly all actives have a fitted effect of over 45% in size; luciferase light after 4 h
The depositor's hits bear a star; ? = inconclusive; [ ] = remark or other dose. On the % scale 0 is the no-effect control and ±100 the full control effect; potency means the concentration at half of the fitted maximal effect.

Each structure is followed by: RE007 growth inh | 2A StopGo
CCCCNC(=O)C(NC(=O)Cc1cc(C(F)(F)F)cc(C(F)(F)F)c1)C(=O)c1ccccc1 (stereo not drawn)
→ 6% | 6%
Cc1cc2c(cc1C)N(C(=O)CCl)CC(=O)N2
→ -23% | 40µM*
C[C@@]12C(C[C@H](O)[C@@]34C[C@@H](CCC13)[C@@H](CO)C4=O)[C@](C)(C(=O)O)CC[C@@H]2O (stereo partly drawn)
→ 7% | -22%
COc1ccc(OC(F)(F)F)cc1CC1(C)C(=O)Nc2ccc(S(=O)(=O)NC3CCCCC3)cc21 (stereo not drawn)
→ -4% | -2%
Cc1ccc(CCN2CC(C(=O)NC3CCC(C)CC3)CC2=O)cc1 (stereo not drawn)
→ 2% | 5%
COC(=O)C[C@@H]1CC[C@H](NC(=O)c2ccccc2)[C@@H](CO)O1
→ 4% | -9%
C#CCN(C[C@H]1[C@H](OC(=O)NCc2ccc(OC)c(OC)c2)[C@H](OC(=O)NCc2ccc(OC)c(OC)c2)C[C@H]2C(=O)N(c3ccccc3)C(=O)[C@@H]12)S(=O)(=O)c1ccc(C)cc1
→ -6% | -12%
O=C(COC(=O)CN1C(=O)c2ccccc2C1=O)Nc1ccccc1C(F)(F)F
→ -4% | -19%
COc1cc(CNC(=O)OC2CC3CC2[C@H]2CCCCN2C3=O)cc(OC)c1 (stereo partly drawn)
→ 0% | -19%
Nc1ncnc2c1ncn2[C@@H]1O[C@H](C(=O)Nc2ccc(Oc3ccccc3)nc2)[C@@H](O)[C@H]1O
→ 3% | -11%
Cc1nc2ccc(C(=O)Nc3cccc(NS(C)(=O)=O)c3)cn2c1N(C)C(=O)CCc1ccccc1
→ 9%[18.4 µM] | -10%
C[C@H]1CN([C@@H](C)CO)C(=O)c2cc(Br)cnc2O[C@@H]1CN(C)C(=O)Nc1ccc(C(F)(F)F)cc1
→ 20% | 2%
O=C(C[C@@H]1C[C@@H]2c3cc(NS(=O)(=O)c4ccc(F)cc4)ccc3O[C@@H]2[C@@H](CO)O1)NC1CCCCC1
→ -1% | -7%
CC(C)C[C@@H](CNCC(=O)[C@H](CC(=O)O)NC(=O)c1[nH]cnc1C(=O)N[C@H](CN)CC(C)C)NC(=O)c1nc[nH]c1C(=O)N[C@@H](C)C(=O)O
→ 2% | 0%
O=C(COc1ccc(Cl)cc1)N1CCN(S(=O)(=O)c2cc(F)ccc2F)CC1
→ 10% | -14%
O=S1(=O)N[C@@H](Cc2ccccc2)COc2ccc(Cl)cc21
→ 9% | -2%
CC1(C(=O)NCc2ccc(Cl)cc2)CCN1C(=O)c1cccc(F)c1 (stereo not drawn)
→ 14% | -15%
COc1ccccc1N(CC(=O)NCc1ccccc1)S(=O)(=O)c1cccs1
→ 1% | 5%
CCNC(=O)C1(C)CCCN(Cc2ccccc2-c2ccccc2)C1 (stereo not drawn)
→ -15%[18.4 µM] | 0%
CCOc1ccc(Cl)cc1-c1cc(C(=O)NC2CCCCC2)[nH]n1
→ 3% | -24%
Cc1cc(O)c(N=Cc2cc3c(cc2[N+](=O)[O-])OCO3)cc1C
→ -17% | 9%
CC1CC(C)CN(S(=O)(=O)c2ccc(C(=O)OCC(=O)Nc3ccccc3)cc2)C1 (stereo not drawn)
→ 2% | 2%
Cc1cc(Br)c2c(c1)[C@](O)(c1cn(C)c3ccccc13)C(=O)N2C
→ 5% | -7%
O=C(O)C[C@H]1c2cc(C(F)(F)F)ccc2S(=O)(=O)N1C1CCCC1
→ 14% | -15%
CCOC(=O)c1ccc(NC(=O)c2ncn3c2C(=O)NC[C@@H]3C)cc1
→ 5% | -17%
CCCCCCCCN1C(=O)[C@H](CC(=O)N2CCCC2)C[C@@]2(C(=O)OC)CCCCC=C12
→ -19% | -8%
O=C(/C=C/c1cccs1)NCc1cccs1
→ 7% | 60%[activator]
C=C1[C@H](C)CN[C@H]1CCO
→ -11% | -10%
COC(=O)CC1N(S(=O)(=O)c2ccc(C)cc2)c2ccccc2C1(C(=O)OC)C(=O)OC (stereo not drawn)
→ -10% | -25%
Cc1ccc(S(=O)(=O)NC(=O)C2(C)CCN2C(=O)C2(c3ccc(Cl)cc3)CCC2)nc1 (stereo not drawn)
→ 33%[18.4 µM] | 3%
N#CCCN(Cc1ccccc1)C(C(=O)NC1CCCCC1)c1cc2ccccc2o1 (stereo not drawn)
→ 2% | -25%
C=CCOC(=O)C1=C[C@H](c2ccc(Br)cc2)C[C@H](OCc2ccc(CO)cc2)O1
→ 9% | -5%
O=C(Cc1ccc([N+](=O)[O-])cc1)NCCS(=O)(=O)N1CCN(c2ccccc2)CC1
→ 11% | -28%
CN(C)C1CN(Cc2cn(Cc3cccc(C(F)(F)F)c3)nn2)S(=O)(=O)C1 (stereo not drawn)
→ -1% | -11%
O=C(COC(=O)c1cc(Br)ccc1O)NCCC1=CCCCC1
→ -5% | -7%
Cn1c(=O)c2c(-c3ccccc3)n(-c3cc([N+](=O)[O-])ccc3O)cc2n(C)c1=O
→ 7% | 100%[activator]
CC(C)(C)NC(=O)C1c2ccccc2OCC(=O)N1Cc1ccccn1 (stereo not drawn)
→ 5% | -18%
C[C@@H]1CN([C@H](C)CO)C(=O)CCCn2nncc2CO[C@H]1CN(C)C
→ -6% | -10%
CCCCn1nnnc1C(c1cc2ccccc2o1)N1CCN(c2ccncc2)CC1 (stereo not drawn)
→ ? | -14%
O=C(NCc1ccccc1)c1cc(C2COCCN2C(=O)c2ccc3c(c2)CCO3)on1 (stereo not drawn)
→ 0%[18.4 µM] | -1%
COc1ccc(-c2cc(NC=O)c3ncc(-c4cccc(OC)c4)n3c2)cc1
→ 6%[18.4 µM] | -16%
N#Cc1cccc(NC(=O)c2cc(C3CCCCN3C(=O)c3cccs3)on2)c1 (stereo not drawn)
→ 11% | ?
COc1ccc2c(c1)C1OCCC1C(c1ccco1)N2 (stereo not drawn)
→ -27% | 1%
CCC/C=C/c1ccc(CN2C(C(C)C)C(=O)N(Cc3cn(CCOCOC)nn3)CCS2(=O)=O)cc1 (stereo not drawn)
→ 3% | -18%
CN1CCN(C(=O)c2cccc(-c3cccc4nccn34)c2)CC1
→ -15%[18.4 µM] | -2%
N#CC(=C1C=C(Br)C(=NO)C=C1Cl)c1ccc(Cl)cc1
→ 8% | ?
C[C@H](CO)N1C[C@H](C)[C@H](CN(C)Cc2ccc(Oc3ccccc3)cc2)Oc2cc(Br)ccc2S1(=O)=O
→ 37% | -21%
S=C(NCCCN1CCOCC1)NN=C1c2ccccc2-c2ccccc21
→ -7% | ?
Cc1c(C(=O)NC2CC(C)(C)NC(C)(C)C2)oc2c(Cl)cccc12
→ 11% | -24%
C[C@H](CO)N1C[C@H](C)[C@H](CN(C)C(=O)N[C@H](C)c2ccccc2)OCc2ccccc2-c2c(n(C)c3ccccc23)C1=O
→ 6% | ?
NC(Cc1ccc(C(F)(F)F)cc1)c1csc(Nc2nccc(C(F)(F)F)n2)n1 (stereo not drawn)
→ 0%[18.4 µM] | -17%
C[C@H]1[C@@H](Cc2cc(Cl)cc(Cl)c2)N(c2ccccc2)c2ccccc2CN1Cc1ccccc1
→ -8% | -5%
COC(=O)c1ccc2nc(-c3ccccc3)c(Cc3ccc(C)cc3)n2c1
→ -26% | 15%
CC(=O)O[C@@H](Cc1ccc(O)cc1)C(=O)CC(C)C
→ 7% | -21%
CNc1ncnc2c1ncn2[C@H]1CN(Cc2ccco2)C[C@@H](CO)O1
→ 4% | -7%
CCOC(=O)[C@]12CCC=C1N(Cc1cccc3ccccc13)C(=O)[C@H](CC(=O)NCCC(C)C)C2
→ 7% | 4%
COC(=O)C1=C(C(=O)OC)C(C(=O)OC)N2C=CC=CC2=C1C(=O)OC (stereo not drawn)
→ -9% | -16%
O=C1NC[C@@H](CCCCN2C[C@H](Cc3ccc(O)cc3)N(Cc3ccccc3)C(=O)C2=O)N(CC2CCCCC2)C1=O
→ -5% | -8%
COc1ccc(C(=O)N2CCCCC2c2cc(C(=O)Nc3ccccc3)no2)cc1 (stereo not drawn)
→ 0% | -4%
CCCCNC(=O)c1nc(-c2ccc(C(F)(F)F)cc2)oc1-c1ccccc1
→ 14% | 9%

11 entries out of the list, sorted by molar mass, low to high.
Each structure is followed by: RE007 growth inh | 2A StopGo
C=C1[C@H](C)CN[C@H]1CCO
→ -11% | -10%
CC1(C(=O)NCc2ccc(Cl)cc2)CCN1C(=O)c1cccc(F)c1 (stereo not drawn)
→ 14% | -15%
COC(=O)C1=C(C(=O)OC)C(C(=O)OC)N2C=CC=CC2=C1C(=O)OC (stereo not drawn)
→ -9% | -16%
S=C(NCCCN1CCOCC1)NN=C1c2ccccc2-c2ccccc21
→ -7% | ?
Cn1c(=O)c2c(-c3ccccc3)n(-c3cc([N+](=O)[O-])ccc3O)cc2n(C)c1=O
→ 7% | 100%[activator]
O=C(Cc1ccc([N+](=O)[O-])cc1)NCCS(=O)(=O)N1CCN(c2ccccc2)CC1
→ 11% | -28%
COC(=O)CC1N(S(=O)(=O)c2ccc(C)cc2)c2ccccc2C1(C(=O)OC)C(=O)OC (stereo not drawn)
→ -10% | -25%
Cc1nc2ccc(C(=O)Nc3cccc(NS(C)(=O)=O)c3)cn2c1N(C)C(=O)CCc1ccccc1
→ 9%[18.4 µM] | -10%
COc1ccc(OC(F)(F)F)cc1CC1(C)C(=O)Nc2ccc(S(=O)(=O)NC3CCCCC3)cc21 (stereo not drawn)
→ -4% | -2%
O=C(C[C@@H]1C[C@@H]2c3cc(NS(=O)(=O)c4ccc(F)cc4)ccc3O[C@@H]2[C@@H](CO)O1)NC1CCCCC1
→ -1% | -7%
C[C@H](CO)N1C[C@H](C)[C@H](CN(C)Cc2ccc(Oc3ccccc3)cc2)Oc2cc(Br)ccc2S1(=O)=O
→ 37% | -21%

Further records.
Each structure is followed by: RE007 growth inh | 2A StopGo
CCNC(=O)C1CCCN(C(=O)c2ccc(OC)cc2OC)CC1 (stereo not drawn)
→ 3% | -6%
NC(=O)N/C=C1\CCCOC1=O
→ 8% | 0%
CC1(C(=O)NCc2ccccc2)CN(S(C)(=O)=O)CC(=O)N1Cc1cccc(F)c1 (stereo not drawn)
→ -4% | -21%
CC(=O)NCCNC(=O)C1Cc2c(-c3ccc(Cl)cc3)ccnc2O1 (stereo not drawn)
→ 12% | -20%
O=[N+]([O-])c1ccc2c(c1)-c1ccccc1C2O (stereo not drawn)
→ -2% | 0%
CCCc1nc2c3ccccc3ccn2c1Cc1ccc(OC)cc1C
→ ? | 43%[activator]
COc1cc(C(C)=O)ccc1OCC(=O)Nc1cc(S(=O)(=O)N2CCOCC2)ccc1N1CCCC1
→ 17% | 13%
CCCC(=O)N1CCC1(C)C(=O)NS(=O)(=O)c1ccc(Cl)cc1 (stereo not drawn)
→ 3% | -7%
O=C(COC(=O)CSc1ccccc1)NC1CCS(=O)(=O)C1 (stereo not drawn)
→ 1% | -14%
CC(NC(=O)CNC(=O)c1cccs1)c1cccc(C(F)(F)F)c1 (stereo not drawn)
→ -11% | 21%
Cc1noc(C)c1-c1ccc(C(=O)NCCN2CCOCC2)c2occc12
→ -12% | -2%
CC(=O)NC(c1ccccc1)c1nc(-c2cncnc2)cs1 (stereo not drawn)
→ 8%[18.4 µM] | 0%
CC1=CC(=O)C=CC1=Nc1ccc(N(C)C)cc1
→ -9%[18.4 µM] | 3%
CCN(CC(=O)Nc1c(F)cccc1F)C(=O)CCCSc1nc2ccccc2[nH]1
→ -3% | -8%
O=C(NCc1cccc(Cl)c1)c1ccc(-c2ccc(F)c(F)c2)c2ccoc12
→ 5% | -16%
C[C@@H]1Cc2[nH][nH]c(=O)c2[C@H](C)O1
→ 0% | -17%
COc1ccc(C(C)(O)c2nc(-c3cncnc3)cs2)cc1 (stereo not drawn)
→ -4%[18.4 µM] | -11%
Cc1cc(C)cc(C(O)c2ncc(-c3ccc(F)cc3)[nH]2)c1 (stereo not drawn)
→ -10% | 28%
COc1ccc(C(NC(=O)C2CCN(CCOc3ccc(Cl)cc3Cl)CC2)c2cccs2)cc1 (stereo not drawn)
→ -9% | ?
COc1ccc(C)cc1S(=O)(=O)N1CCCC(N2CCN(c3ccccc3)CC2)C1 (stereo not drawn)
→ -4% | ?
O=C1c2ccccc2-c2ccccc2NC1O (stereo not drawn)
→ -19% | -7%
C[C@H](O)[C@@H]1C(=O)N2CCc3ccc(-c4cccc(F)c4)cc3[C@@H]2C[C@@H]1N(C)S(=O)(=O)c1ccccc1
→ 6% | -14%
CC(C)C[C@@H](CN)NC(=O)c1nc[nH]c1C(=O)N[C@@H](Cc1c[nH]c2ccccc12)C(=O)CNC[C@H](C)NC(=O)c1nc[nH]c1C(=O)N[C@@H](CC(=O)O)C(=O)O
→ 5% | 66%[activator]
COc1ccc2[nH]c(=O)c(-c3nnn(-c4ccc(F)cc4)n3)cc2c1
→ -9% | -19%
Cc1cc(C(=O)N2CCC2(C)C(=O)O)nn1C(C)(C)C (stereo not drawn)
→ 5%[18.4 µM] | -6%
CC(OC(=O)c1ccc(NC(=O)CC#N)cc1)C(=O)Nc1ccc(S(=O)(=O)N2CCCC2)cc1 (stereo not drawn)
→ 11% | -12%
CC(C)NC(=O)C1(C)CN(S(C)(=O)=O)CC(=O)N1Cc1cccs1 (stereo not drawn)
→ 10% | 1%

Retrieved one by one from the list above, 2 records:
Each structure is followed by: RE007 growth inh | 2A StopGo
Cc1noc(C)c1-c1ccc(C(=O)NCCN2CCOCC2)c2occc12
→ -12% | -2%
CCCC(=O)N1CCC1(C)C(=O)NS(=O)(=O)c1ccc(Cl)cc1 (stereo not drawn)
→ 3% | -7%

The list is partial; rates above refer to the full screens.
